# Bioassay records from PubChem BioAssay.
# Beta2AR agonist: activates human beta-2 adrenergic receptor causing internalization | P07550 | Am2.2-beta2AR cells, FAP receptor internalization, flow cytometry; reference of the scale not given here | response, % (no concentration beside the values) | actives 0.43% (n = 340,000);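 active = response above a set limit, near 3 SD of response in nonfluorescent compounds, cut at about 42% in these data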;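 also: stock transfer was 100 nL into about 11 µL; a reference agonist was the positive control; negative values mostly stem from fluorescent compounds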
# Target sequence (P07550 whole entry, looked up): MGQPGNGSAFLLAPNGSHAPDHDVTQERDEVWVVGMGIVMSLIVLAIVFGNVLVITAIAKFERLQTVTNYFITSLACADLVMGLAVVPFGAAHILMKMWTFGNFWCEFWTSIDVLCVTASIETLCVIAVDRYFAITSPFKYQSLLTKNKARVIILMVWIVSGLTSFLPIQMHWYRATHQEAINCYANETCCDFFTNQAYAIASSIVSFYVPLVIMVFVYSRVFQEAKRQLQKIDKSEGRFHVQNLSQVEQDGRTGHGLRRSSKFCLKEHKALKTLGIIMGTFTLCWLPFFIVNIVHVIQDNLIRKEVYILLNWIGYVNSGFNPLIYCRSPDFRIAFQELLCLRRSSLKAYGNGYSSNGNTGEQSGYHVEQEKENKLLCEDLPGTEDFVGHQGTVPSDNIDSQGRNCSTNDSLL
# Vif TR-FRET: inhibitors of Vif binding to APOBEC3G peptide, primary screen, biochemical, TR-FRET, GST-Vif 1-94, biotin-A3G peptide, dose response retest (AID 1117319); TR-FRET GST-Vif / biotin-A3G peptide binding; higher % means a stronger effect; test concentration not given here; strong numbers were not always called active; inhibition, %; hits with a dose series show IC50 in µM; actives 0.57% (n = 260,000);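 active = above the screen mean plus three standard deviations and confirmed in dose response; inconclusive = results disagree or hit not tested in dose response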;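 also: Vif residues 1-94 fused to GST binding biotinylated APOBEC3G peptide 110-148; 0% = full assay without inhibitor and 100% = GST in place of GST-Vif; retest series ran down from 100 µM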
# A1 inh: inhibitors of the anti-apoptotic protein A1, read as caspase activation. actives 0.066% (n = 330,000). caspase activation, % (no concentration beside the values). MEF A1-2A-BIM cells, Caspase-Glo 3/7 luminescence, 3 h; percent of clofoctol response, vehicle zero;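 active = over half of replicate activation scores above 10%, or exactly half above 10 with the replicate mean above 10; inconclusive = replicate mean below 10 yet half the replicates above 10; inactive = over half of replicates below 10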;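 also: wells of about 30 µL received 50 nL stock; many hits fall short of the cut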
# E coli growth: blocks Escherichia coli growth. OD600, 23 h; active compounds read low. OD600 absorbance (concentration not given with the values). actives 0.21% (n = 330,000). AID 1053175;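 active = OD600 absorbance below the run mean of sample wells minus 3.6 SD, in any replicate, cut at about 0.56 in these data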;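 also: stock transfer was 300 nL into about 60 µL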
# UCH37 inh: blocks the human deubiquitinase UCH37 | Q9Y5K5 | purified proteasome/UCH37, Ub-AMC cleavage fluorescence | inhibition, % (no concentration beside the values) | actives 0.33% (n = 330,000);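 active = mean of two replicates above 20%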;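 also: 0% = compound-free wells with enzyme and 100% = wells lacking proteasome; stock transfer was 100 nL into about 20 µL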
#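 assay system = human UCH37 enzyme supplied as purified proteasome complex | amount = proteasome at 0.15 nM in the dispensed enzyme solution | schedule = 30 min compound-proteasome preincubation then 25 min substrate reaction, room temperature | measured by = fluorescence, ex 355 nm, em 460 nm | benchmarks = no-proteasome wells (full inhibition) and compound-free wells (no inhibition)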
# LANA-H2B inh: blocks KSHV LANA binding to histone H2A/H2B; cell-free LANA-H2A/H2B peptide, fluorescence polarization; Q9QR71; inhibition, % (test concentration not listed); actives 0.6% (n = 320,000); in the data active = inhibition mostly above about 10%, no sharp cut-off; inactive = mostly below about 6.7%;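 also: stock transfer was 7.5 nL into about 10 µL; 0% = median of vehicle wells and 100% = median of positive control wells; one replicate is shown; the record names a cut of 25% in any replicate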
# HNF4A DNA FP: change in binding of human HNF4 alpha to DNA | P41235 | HNF4a-FITC DNA binding, fluorescence polarization, 1 h | activity change, % at 10 µM | actives 0.3% (n = 360,000) | AID 1224865; in the data active = activity change above about 30%, passing the limit was not always enough;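 also: controls were the assay level and a saturating level of protein; the project sought stronger binding though the title names inhibitors; some compounds called inactive have numbers as strong as hits; positive values seem to mean higher polarization but the record does not say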
# Target sequence (P41235 whole entry, looked up): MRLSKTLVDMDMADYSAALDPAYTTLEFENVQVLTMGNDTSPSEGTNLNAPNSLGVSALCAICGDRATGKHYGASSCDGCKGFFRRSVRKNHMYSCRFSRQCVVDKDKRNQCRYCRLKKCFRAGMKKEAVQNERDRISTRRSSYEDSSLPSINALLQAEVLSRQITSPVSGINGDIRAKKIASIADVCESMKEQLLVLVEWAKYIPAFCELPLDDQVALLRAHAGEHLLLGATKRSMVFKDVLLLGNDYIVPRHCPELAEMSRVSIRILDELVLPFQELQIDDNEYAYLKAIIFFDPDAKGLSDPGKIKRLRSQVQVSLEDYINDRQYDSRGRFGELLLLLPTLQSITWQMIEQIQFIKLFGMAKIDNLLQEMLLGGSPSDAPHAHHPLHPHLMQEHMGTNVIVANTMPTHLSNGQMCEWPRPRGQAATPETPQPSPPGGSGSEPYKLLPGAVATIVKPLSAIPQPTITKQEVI
# Starred values were filed as active, the others as inactive; ? = inconclusive; nt = not tested or not shown.
SMILES	Beta2AR agonist	Vif TR-FRET	A1 inh	E coli growth	UCH37 inh	LANA-H2B inh	HNF4A DNA FP
O=[N+]([O-])c1ccc(/C=N/n2c(-c3ccccc3)n[nH]c2=S)cc1	-6	nt	-0.4	nt	nt	-3.9	1.5
C#CCCOC(=O)N1C2=NC(C(=O)OC)=C(C(=O)OC)[C@@H]3N(C)c4ccc(OC)cc4[C@]23C[C@H]1C(=O)OC	1	nt	0.5	nt	-1.1	1.9	0.7
O=C(CN1CCN(C(=O)c2cccc(S(=O)(=O)N3CCCC3)c2)CC1)Nc1ccccc1Cl	-5	9%	nt	0.71	-0.8	nt	13
CCn1c(-c2ccncc2)n[nH]c1=S	8	nt	0.2	0.67	1.7	1.2	4.9
CCc1ccc2[nH]c3nc(SCC(=O)NCC4CCCO4)nnc3c2c1 (stereo not given)	29	nt	nt	0.68	4.6	nt	-0.6
O=S(=O)(NCc1ccncc1)c1ccc(S(=O)(=O)NCC2CCCO2)cc1 (stereo not given)	11	1%	-0.6	0.67	4.0	-12	1.7
O=C1CC(c2ccccc2)CC2=C1C=Nc1ccccc1N2 (stereo not given)	-8	0%	1.1	0.67	-0.2	-1.0	-0.1
Cc1nnc(NC(=O)C(C)Sc2nnc(CCNC(=O)c3ccccc3F)n2C)s1 (stereo not given)	-3	nt	1.0	0.66	2.0	2.5	-1.6
Cc1c(C(=O)N2CCc3ccccc3C2)oc2ccc(Br)cc12	-1	-6%	-0.3	0.69	1.2	0.0	5.1
COc1ccc(CCNC(=O)c2ccc3c(=O)n(Cc4ccco4)c(=S)[nH]c3c2)cc1OC	1	2%	-0.3	0.76	3.4	-2.1	-3.8
CC(=O)c1cc(F)ccc1OCC(=O)Nc1ccc2c(c1)OCO2	-3	nt	-0.3	0.68	1.8	-2.6	-0.9
CCC(CO)Nc1ccc(-c2nn(C)c(=O)c3ccccc23)cc1[N+](=O)[O-] (stereo not given)	3	nt	-0.4	0.69	1.6	-0.5	5.9
Cc1ccc(C(=O)COC(=O)CNC(=O)CNC(=O)c2ccc(C)cc2)cc1	5	-7%	1.2	0.65	2.6	1.6	4.8
Brc1cc(Br)c(Oc2cc(Br)c(Br)cc2Br)cc1Br	0	nt	0.1	0.66	4.2	-1.3	0.4
N=C1C(c2nc3ccccc3s2)=C(O)CN1Cc1ccco1	-6	24%	-0.4	0.66	-6.8	-0.2	0.6
CCOC(=O)N1CCN(C(=O)c2ccc(-n3c(=S)[nH]c4ccccc4c3=O)cc2)CC1	-10	-3%	0.0	0.67	1.0	-2.8	1.7
CCCN(CC(=O)Nc1ccccc1OC)C(=O)c1ccc(S(=O)(=O)Nc2ccccc2)cc1	9	6%	0.7	0.7	5.9	-1.4	-1.7
CCc1ccc(NC(=O)c2cc(S(=O)(=O)N3CCCC3)c[nH]2)cc1	8	nt	1.0	0.64	4.6	0.0	0.7
COc1ccc(NC(=S)NNC(=O)c2ccccc2OC(F)F)cc1	-1	15%	0.4	0.67	2.4	1.0	4.3
Cc1cc(C)nc(SCC(=O)Nc2ccccc2[N+](=O)[O-])n1	1	1%	-0.9	0.71	3.6	5.3	2.2
CCc1cccc(OCC(=O)Nc2cc(S(=O)(=O)N3CCOCC3)ccc2N2CCCC2)c1	1	nt	-0.8	0.67	-1.5	-0.3	-2.6
N#C/C(=C/c1cccs1)c1ccccn1	2	13%	-2.5	0.64	9.6	-1.3	0.4
CCN1C(Nc2ccccc2)=NC[C@@H]1CC(C)C	-5	nt	0.0	nt	3.6	0.7	-2.8
O=C(COC(=O)c1ccc(O)cc1)Nc1cc(C(F)(F)F)ccc1Cl	-6	-1%	-1.1	0.65	5.1	2.6	2.6
CCOc1ccc(CCNS(=O)(=O)c2ccc3c(c2)NC(=O)CC(=O)N3)cc1OCC	2	1%	0.0	0.68	1.9	3.5	0.0
CC1CCCCC12NC(=O)N(CC(=O)N1CCN(c3ncccn3)CC1)C2=O (stereo not given)	-3	-2%	0.8	nt	nt	-1.4	-2.3
COc1cc(OC)cc(C(=O)NCC2CCCN(C(=O)c3oc(C)cc3C)C2)c1 (stereo not given)	-5	3%	0.0	0.71	3.1	1.3	-1.5
Cc1ccc2[nH]c(=O)c(CN(Cc3ccco3)C(=O)c3ccncc3)cc2c1	6	77%	-0.7	0.7	-4.6	2.7	3.5
Cc1sc2c(c1C)C(=O)NC(c1ccccc1F)N2 (stereo not given)	-13	0%	-1.0	0.67	7.4	3.8	1.5
CCN(C(=O)CSc1nnc(-c2ccccc2)n1C)C1CCS(=O)(=O)C1 (stereo not given)	6	-1%	0.2	0.64	1.6	-4.9	0.4
CNC(=O)NC(=S)NC(=O)c1ccc(OC)cc1	-4	-5%	-0.8	0.67	5.6	-4.3	0.0
Nc1cc(=O)[nH]c(N2CCN(c3ccccc3)CC2)n1	5	-3%	-0.6	0.65	4.2	-0.4	3.3
CCOc1ccc(NC(=O)CCNS(=O)(=O)c2ccc3c(c2)CC(C)N3C(C)=O)cc1 (stereo not given)	-2	1%	0.1	0.72	1.3	0.8	-2.0
COc1ccc2ccccc2c1/C=N/Nc1ccc(Cl)c(C(=O)O)c1	-1	nt	-0.1	nt	nt	-1.3	-4.2
O=C(COC(=O)COc1ccc(Cl)cc1Br)NC1CCCCCC1	-3	1%	0.0	0.66	0.4	-3.8	-1.9
CN(C)c1nc(NCc2ccccc2)nc(N/N=C/c2ccc3c(c2)OCO3)n1	-5	17%	-0.1	nt	nt	-5.9	-0.9
CCN(C(=O)COc1ccc(F)cc1Br)c1c(N)n(Cc2ccccc2)c(=O)[nH]c1=O	-8	-9%	0.4	0.64	1.3	3.4	-4.2
COc1ccc(OC)c(NS(=O)(=O)c2cccs2)c1	-5	23%	0.3	0.67	2.0	0.2	1.5
COCCN(C(=S)Nc1cccc(C)c1)C(C)c1cccnc1 (stereo not given)	3	-11%	-0.1	0.69	4.7	-9.8	-1.4
Cc1nn(CCC#N)c(NC(=O)c2ccccc2)c1P(=O)(Nc1ccc(Br)cc1)N1CCOCC1 (stereo not given)	6	0%	0.1	0.71	5.3	-0.1	0.0
Cc1cc(C)cc(OC(=O)c2cccnc2)c1	2	nt	0.5	0.66	-0.9	-2.7	-0.6
O=C1CC(N2CCN(Cc3ccc4c(c3)OCO4)CC2)C(=O)N1c1ccccc1 (stereo not given)	0	-3%	0.3	0.66	1.7	-9.9	3.1
Cc1c(Br)cc(C(=O)N2CCN(CCO)CC2)c(C)c1C	-3	-8%	0.5	0.74	-0.2	-1.1	6.6
Cc1cc(C)nc(NC(=O)c2cccs2)n1	-6	-2%	0.7	0.68	3.8	1.0	1.3
CCOc1ccc(NC(=O)CSc2nc3cccnc3n2CC)cc1	-1	22%	nt	0.8	-0.2	nt	3.8
COc1cc(/C=N/N2CCCCC2)cc(OC)c1O	4	4%	0.6	nt	nt	0.4	-1.6
Cn1nccc1C(=O)N/N=C/c1ccccc1[N+](=O)[O-]	4	-4%	-5.2	nt	nt	-2.2	0.6
CCN(CC)c1ccc(C2C3CCCCC3(O)CCN2CC(=O)Nc2ccccc2)cc1 (stereo not given)	5	>100µM*	0.5	0.68	2.4	-0.9	-2.1
CCC(NC(=O)c1cc(COc2ccc(F)c(F)c2)on1)c1ccncc1 (stereo not given)	4	nt	nt	0.7	1.1	nt	4.0
Cc1ccc([N+](=O)[O-])cc1N=Cc1ccc(Br)s1	6	2%	-0.3	0.73	3.6	-1.3	4.5
CCc1ccccc1OCC(=O)OCC(=O)c1c(N)n(C)c(=O)n(C)c1=O	2	7%	-0.3	0.64	1.9	0.6	2.4
CN(CC(=O)NNC(=O)Cc1ccccc1F)S(=O)(=O)c1ccc(Cl)cc1	-3	4%	-0.2	0.68	0.6	nt	0.8
Cc1ccc(NC(=O)C(=O)NCCc2c[nH]c3ccccc23)cc1C	-1	-5%	-0.6	0.68	0.2	1.7	3.8
COc1ccc(COCC(CC(C)C)N2CCN(C(=O)c3cccc(C(F)(F)F)c3)CCC2=O)cc1 (stereo not given)	-2	?	0.2	0.61	-0.2	-2.7	1.8
C(=C\c1nc2ccccc2[nH]1)/c1ccccc1	-13	-3%	-7.3	0.53*	-298	3.9	-0.8
CCc1ccccc1NS(=O)(=O)c1cccc2nsnc12	-6	0%	-0.2	0.66	1.8	-0.2	-4.2

# More results follow.
SMILES	Beta2AR agonist	Vif TR-FRET	A1 inh	E coli growth	UCH37 inh	LANA-H2B inh	HNF4A DNA FP
CCCC(=O)Nc1cc2c3c(c1)C(C)C(=O)N3CCC2 (stereo not given)	-1	nt	0.3	0.68	4.8	8.1	-1.0
CCOC(=O)c1c(NC(=O)c2ccccc2N(C)S(=O)(=O)c2ccccc2)sc2c1CCCC2	-3	nt	0.5	0.78	-95	-4.9	0.7
Cc1ccc(-c2c[n+](CC(=O)Nc3cc(=O)n(C)c(=O)n3C)c3n2CCC3)cc1	-2	nt	1.2	0.71	4.4	-3.1	4.5
CCc1ccc(OCCNC(=O)c2cc(SC)ccc2Cl)cc1	6	1%	0.2	0.69	4.0	-8.6	-1.3
C=CCNC(=O)c1c(O)c2cccc3c2n(c1=O)CCC3	-2	nt	-0.8	0.69	-8.9	-2.0	-3.0
Cc1nc(-c2cccc(NC(=O)c3ccc(-n4cccn4)cc3)c2)cs1	16	-10%	-0.3	0.66	-0.3	0.6	1.1
COc1cccc(C(=O)Oc2cc(N)n(S(=O)(=O)c3ccc(C)cc3)n2)c1OC	10	4%	0.0	0.74	6.1	4.7	1.2
CC1(C)C2CCC1(CS(=O)(=O)N1CCC(C(=O)O)CC1)C(=O)C2 (stereo not given)	0	-3%	0.4	0.72	3.1	-3.8	1.9
O=C(c1cccs1)N1CCN(C(=O)c2cn(-c3ccccc3)nc2-c2ccccc2)CC1	-6	9%	0.2	0.68	-1.8	-4.8	1.7
CN1CCN(c2ccc(CNS(=O)(=O)c3cccc(F)c3)cc2)CC1	-2	-4%	0.4	0.7	2.7	-2.1	1.7
COC(=O)c1sccc1NC(=O)c1cccc(OC)c1	1	7%	-0.6	0.74	2.5	-1.9	3.5
Cc1ccc(/C(O)=C2/C(=O)C(=O)N(Cc3cccnc3)C2c2ccccn2)cc1 (stereo not given)	-5	-4%	-0.2	0.74	13	10	2.6
O=C(NNC(=O)c1ccncc1)NC1CCCCC1	4	-3%	-0.6	0.68	-0.7	-0.8	1.0
CC1CCC2(CC1)NC(=O)N(CC(=O)N1CC(C)CC(C)C1)C2=O (stereo not given)	-12	nt	1.0	0.7	-2.8	-2.0	-0.5
CC(=O)Nc1nc2c(c3c1c(=O)oc1ccccc13)CC(C)CC2 (stereo not given)	nt	25%	nt	0.68	-178	nt	nt
Cc1ccc2c(c1)N(CC(=O)NC1CCCCC1)C(=O)c1cccnc1O2	2	-5%	nt	0.73	6.3	nt	3.6
O=S(=O)(Nc1nc2ccccc2nc1NCc1ccco1)c1cccs1	3	26%	-0.8	0.72	-8.4	0.3	3.5
Cc1ccc(C)c(NC(=O)CN(C)C(=O)C2=NNC(=O)CC2)c1	-6	nt	0.4	0.67	2.9	-6.5	0.1
CC(=O)Oc1ccc(-c2cccc(C(=O)NCCO)c2)cc1	-5	2%	0.6	0.72	-1.0	-0.3	-4.9
